2A Renilla = Primary qHTS Assay for Foot and Mouth Disease Virus Antivirals against NCGC Sytravon and CBC Compound Libraries: Renilla Luciferase Signal; hit rate 0.32% among 120,000; AID 1745857, 2022; Potency, µM (top dose mostly 57.5 µM), for the others: at the top dose signal change, negative = less light; HEK cells with a luciferase reporter of 2A StopGo recoding; active means well fitted falling curve with a large enough effect; inconclusive means small, poorly fitted or top-dose-only effect; inactive means no such curve, though single readings can be large or run the other way; further: nearly all actives have a fitted effect of over 55% in size; overnight with compound
StopGo FLuc = Primary qHTS Assay for Foot and Mouth Disease Virus Antivirals against NCGC Sytravon and CBC Compound Libraries: Firefly Luciferase Signal. AID 1745856, 2022. hit rate 0.23% among 120,000. HEK cells with a luciferase reporter of 2A StopGo recoding. Potency, µM (highest dose often 57.5 µM), for the others: at the top dose signal change, negative = less light; active = well fitted falling curve with a large enough effect; inconclusive = small, poorly fitted or top-dose-only effect; inactive = no such curve, though single readings can be large or run the other way; further: nearly all actives have a fitted effect of over 60% in size; overnight with compound
Numbers without * were called inactive; ? = inconclusive; [ ] = another dose, or the depositor's remark. On the % scale 0 is the no-effect control and ±100 the full control effect; potency means the concentration at half of the fitted maximal effect.

SMILES | 2A Renilla | StopGo FLuc
Cc1cccc2c1NC(=O)C2(O)c1c(C)[nH]c2ccccc12 (stereo not given) | -2% | -6%
Cc1ccccc1OCCCn1cnc2c1c(=O)n(C)c(=O)n2C | ? | -29%
Cc1oc(-c2cccc(Cl)c2)nc1CS(=O)(=O)CC(=O)NCc1ccccc1Cl | 8% | -10%
CCOC(=O)C(NC(=O)Cc1cc(OC)c(OC)c(OC)c1)C(=O)OCC | 0% | -1%
Cc1ncc(CO)c(CO)c1O | -8% | -10%[11.5 µM]
Cn1nc(CC(=O)NCc2ccccc2CN2CCOCC2)c2ccccc2c1=O | 2% | 10%
CCOC(=O)C1CCC(CN(Cc2ccccc2)S(=O)(=O)c2ccc(Br)cc2)CC1 (stereo not given) | -11% | -26%
Cc1ccc(Cl)cc1Nc1nn2c(=O)c3ccc(C(=O)N4CCCC(C)C4)cc3nc2s1 (stereo not given) | 5% | -11%
COc1cc(C2C(C(=O)Nc3ccccc3)=C(C)Nc3nnnn32)cc(OC)c1OC (stereo not given) | -23% | -16%
COc1ccc(C(=O)Nc2ccc3oc(=O)ccc3c2)cc1 | 4% | 95%[activator]
Cc1cccc(-c2cc(C(=O)NCC3CCCO3)c3ccccc3n2)c1 (stereo not given) | 14% | 17%
CN(CC(=O)Nc1ccc(F)cc1)C(=O)C1CC(=O)N(Cc2ccccc2)C1 (stereo not given) | 14% | 13%
Cc1c(C)c2ccc(OCC(=O)Nc3nc4ccccc4[nH]3)cc2oc1=O | -7% | 6%
Fc1ccc(CNCc2ccc(-c3ccccc3)o2)cc1 | -15% | 74%[activator]
CC1(C)CC(CNCc2ccco2)CCO1 (stereo not given) | -3% | 1%
CN(C)C=Nc1nc2c(Br)ccc(Br)c2cc1C(=O)NCC(C)(C)C | -4% | 0%
O=C(CCCCn1c(=O)c2ccccc2n(CC(=O)Nc2cccc(F)c2)c1=O)NCc1ccccc1Cl | -13% | -19%
COc1ccc(C2CC(=O)NC(NC(=O)c3ccc(Br)cc3)=N2)c(OC)c1OC (stereo not given) | -5% | -14%
Nc1nccnc1C(=O)NCc1ccnc(Oc2ccccc2)c1 | 32µM* | ?
c1ccc2sc(SCC34CC5CC(CC(C5)C3)C4)nc2c1 | -3% | 99%[activator]
O=[N+]([O-])c1cccc2nc(/C=C/c3ccc(C(F)(F)F)cc3)ccc12 | -11% | 0%
Cn1c(=O)c2c(ncn2CCC(=O)Nc2ccc(Br)cc2)n(C)c1=O | 10% | 17%
COC(=O)[C@H](CC(C)C)N(CCc1cn(Cc2ccc(C)cc2)nn1)S(=O)(=O)c1ccc(F)cc1Br | 32%[activator] | -5%
Cc1ccc(CN(C(=O)c2ccc(-n3cnnn3)c(C)c2)C(C)C)o1 | -1% | 5%
CCc1ccc(-c2nc3c(c(SCc4ccccc4)n2)Cc2c(CO)cnc(C)c2O3)cc1 | 21% | -18%
C=CCc1cc(CNC)cc(OC)c1OCC | -1% | -12%
CC(C)c1ccc(Nc2ncnc3onc(-c4ccc(F)cc4)c23)cc1 | 1% | 7%
CCOC(=O)c1cnc2ccc(C(=O)OC)cc2c1Nc1ccc(OCC)cc1 | -1% | 13%
O=C(NC1CC1)c1cc(-c2ccco2)nc2ccccc12 | -5% | 1%
COc1ccc(NC(=O)C2CCCN(c3ccc4nncn4n3)C2)cc1Cl (stereo not given) | -8% | -3%
Cc1ccc(-n2ncc3c(N4CCCCCC4)ncnc32)cc1C | -2% | ?
CC(O)CNc1nc2c(c(=O)n(C)c(=O)n2C)n1Cc1ccccc1Br (stereo not given) | -14% | -3%
COc1ccc(C(=O)COC(=O)Cc2c(F)cccc2Cl)cc1Br | 17% | -9%
C=CCNC(=O)NC(=O)CSc1nc(-c2ccccc2)c(-c2ccccc2)o1 | ? | ?
O=S1(=O)c2ccc(N3CCSCC3)cc2Oc2ccccc2CN1Cc1cn(Cc2cccc(F)c2)nn1 | 0% | 39%[activator]
CCn1c(CCCOc2ccc(Cl)cc2Cl)n[nH]c1=S | -13% | 114%[activator]
CCOC(=O)NC(Nc1cccc(F)c1)(C(=O)OCC)C(F)(F)F (stereo not given) | 77%[activator] | 70%[activator]
COc1ccc(Cl)cc1NC(=O)CSc1nc2c([nH]c3ccccc32)c(=O)n1-c1ccccc1 | 1% | 3%
Oc1ccc(C(O)CNCCCCCCNCC(O)c2ccc(O)c(O)c2)cc1O (stereo not given) | -9% | -21%[11.5 µM]
CCCCOc1cccc(C(=O)Nc2ccc(OC)c3ncccc23)c1 | ? | ?
CCOc1ccc(NC(=O)Cn2cc(C(=O)c3ccc(C)cc3)c(=O)c3cc4c(cc32)OCO4)cc1 | -17% | -16%
Cc1cccc(/C=N/NC(=O)c2ccc(-c3ccccc3)cc2)c1 | 9% | 36%[activator]
Cc1cc(SCC(=O)NCCC#N)nc2ccccc12 | -3% | 3%
COC(=O)Cn1c(=NC(=O)c2ccc3c(c2)OCCO3)sc2ccccc21 | -3% | 9%
C/C(=N\OC(=O)c1cc(-c2ccc(C)c(C)c2)nc2ccccc12)C(C)(C)C | 21% | 121%[activator]
COc1cccc(C(C)NC(=O)Cc2ccccc2C)c1 (stereo not given) | 12% | 12%
CC(C)c1cccc(NC(=O)c2n[nH]c(=O)c3ccccc23)c1 | 27% | 85%[activator]
COc1ccc(N2CCN(Cc3cccn3-c3nnc(N4CCN(C5CCCCC5)CC4)s3)CC2)cc1 | -12% | 23%
O=C(CSc1ncc(-c2ccccc2)o1)NCC1CC1 | 24% | 62%[activator]
CCCCSCCCNC(=O)c1cc(-c2cccnc2)nc2ccc(S(=O)(=O)N3CCC(C)CC3)cc12 | -5% | ?
CC(NC(=O)Cc1cccs1)C1CCCO1 (stereo not given) | 5% | -3%
O=C(Cc1ccc(NC(=O)N2CCCCc3ccccc32)cc1)NCc1cccc(Br)c1 | -7% | -5%
COc1ccc(C(=O)N2CCC(C(=O)N(C)Cc3ccc(C)cc3C)CC2)c2ccccc12 | 5% | -23%
O=C(CN1CCCC(c2nc3ccccc3o2)C1)NCC(F)(F)F (stereo not given) | 5% | 4%
O=S(=O)(NCCc1ccc(Cl)cc1)c1ccc(N2CCCCS2(=O)=O)cc1 | 106%[activator] | ?
COc1ccc(-n2c(=O)c3c4c(sc3n(Cc3ccccc3)c2=O)CN(C(C)=O)CC4)cc1OC | 4% | 3%
Cc1ccc(C)c(/C=C/C(=O)c2ccc(O)cc2)c1 | 19% | 40%[activator]
COc1cccc(C(=O)NCC(C)C)c1 | -10% | 0%
CCCCCn1c(=O)[nH]c2cc(C(=O)NCc3ccc(OC)cc3)ccc2c1=O | 0% | -9%
O=S(=O)(NCCSc1nnnn1-c1ccccc1)c1ccc(F)cc1 | 69%[activator] | -16%
Next section
SMILES | 2A Renilla | StopGo FLuc
Cc1cc(C)c(OC(=O)c2cnc(C)cn2)c(C)c1 | 12% | -6%
CCCC1CCC(C)CC1O (stereo not given) | 4% | -5%
COC(=O)c1ccc(OC(=O)c2ccc(OC)cc2)cc1 | -7% | 12%
CC1=C(C(=O)Nc2cccnc2)C(c2ccccc2)n2nc(SCc3ccccc3F)nc2N1 (stereo not given) | -2% | 10%
CCc1nnc(SCc2nc(-c3ccccc3)oc2C)c2cc3sccc3n12 | 24% | -1%
CC(C)c1ccc(-c2nnn(CCCn3c(=O)c4c(ncn4C)n(C)c3=O)n2)cc1 | 4% | 26%
COc1cc(C(=O)Nc2sc3c(c2C(N)=O)CCC(C)C3)cc(OC)c1OC (stereo not given) | 7% | 0%
CC(=O)Nc1ccc(CNCc2csc(C)n2)cc1 | -12% | -12%
COc1ccc(CNC(=O)CCCn2ccc3cc(S(=O)(=O)N4CCCC4)ccc32)cc1 | 49%[activator] | -9%
Cc1ccc(-n2nc3cc(C)c(NC(=O)c4ccc(Br)o4)cc3n2)cc1 | -3% | 105%[activator]
CN(C)CCCNC1CCCC1 | 1% | -3%
O=S(=O)(Nc1ccc2cn[nH]c2c1)c1ccccc1C(F)(F)F | 141%[activator] | 4%
Cc1ccc(OCc2nc(-c3cc(C)nc4ccccc34)no2)c(C)c1 | -5% | 9%
Nc1ccccc1C1CC1 | -5% | -5%
Cc1ccc(NC(=O)C2CCCN(c3cnccn3)C2)cc1Cl (stereo not given) | 8% | 14%
Cc1c(-c2nsc(NC(=O)c3cccs3)n2)nnn1-c1ccc(Cl)cc1 | 7% | 84%[activator]
Cc1nc(CSc2ccc(C(=O)NC3CCCC(C(F)(F)F)C3)cc2)cs1 (stereo not given) | ? | ?
CN1C(=O)c2[nH]nc(-c3ccc(F)cc3)c2C1c1ccccn1 (stereo not given) | 10% | -6%
COc1ccc(OC)c(C(C)NC(=O)CCc2cccs2)c1 (stereo not given) | 5% | 5%
O=C(CSc1nnc(-c2cccs2)n1C1CC1)N1CCN(c2ccc(F)cc2)CC1 | -13% | -4%
C[C@H]1[C@H]2CC[C@H]3[C@@H]4CC=C5C[C@@H](N(C)C)CC[C@]5(C)[C@H]4CC[C@]23CN1C | -11% | -14%
Cc1cc2c(c(=O)n1Cc1ccccn1)C(c1ccco1)C(C#N)=C(N)O2 (stereo not given) | -11% | -4%
O=C(C1=C(OC(=O)c2ccco2)c2ccccc2S(=O)(=O)N1Cc1ccccc1)c1ccccc1 | 25% | -7%
COc1ccc(COc2ccc(C#N)cc2Cl)cc1F | 15% | 202%[activator]
O=C(N/N=C/c1ccc([N+](=O)[O-])o1)c1ccc(O)cc1 | ? | -35%
O=C(NCCc1ccc(F)cc1)c1cc(=O)[nH]c2ccccc12 | 13% | 12%
COc1cccc2cc(C(=O)Nc3ccccc3Oc3ccccc3)c(=O)oc12 | -3% | -1%
CC(=O)N1CCN(S(=O)(=O)c2ccc(C)c3ncccc23)CC1 | 13% | 15%
Cn1nnc2c(N3CCCCC3)ncnc21 | -7% | -9%
O=S(=O)(Cc1coc(-c2ccccc2)n1)CC1CCCO1 (stereo not given) | 8% | 73%[activator]

An excerpt of these results, as a markdown table.
| mol | 2A Renilla | StopGo FLuc |
| --- | --- | --- |
| CN1C(=O)c2[nH]nc(-c3ccc(F)cc3)c2C1c1ccccn1 (stereo not given) | 10% | -6% |
| COc1cccc2cc(C(=O)Nc3ccccc3Oc3ccccc3)c(=O)oc12 | -3% | -1% |
| COc1ccc(COc2ccc(C#N)cc2Cl)cc1F | 15% | 202%[activator] |
| CC(=O)N1CCN(S(=O)(=O)c2ccc(C)c3ncccc23)CC1 | 13% | 15% |

Further entries follow.
SMILES | 2A Renilla | StopGo FLuc
CCCNC(=O)C1CCC(CNS(=O)(=O)c2ccc3c(c2)CC(C)N3C(C)=O)CC1 (stereo not given) | 5% | 16%
CCCCNc1nc2c(c(=O)n(Cc3cccc(Br)c3)c(=O)n2C)n1C | 1% | -31%
Cc1ccc(Nc2cc(C)nc3c(C)c(C)ccc23)cc1 | -1% | 0%
CCCCCNC(=O)C1CCC(Cn2c(=O)c3sccc3n(CC(=O)N3CCCC3)c2=O)CC1 (stereo not given) | -3% | 6%
CC(C)(C)C(=O)N1N=C(c2cccs2)CC1c1ccc2nccnc2c1 (stereo not given) | 42%[activator] | 35%[activator]
C[C@H](O)CNC(=O)C(=O)Nc1ccc(C(F)(F)F)nc1 | 5% | 19%
O=c1ccc(S(=O)(=O)N2CCCC2)cn1Cc1ncc(-c2ccc(F)cc2)o1 | -8% | 11%
CCc1cccc(CC)c1NC(=O)COC(=O)c1ccc2ccccc2n1 | -8% | 6%
Cc1cc(=O)oc(C)c1C(=O)OCC(=O)NCC1CCCO1 (stereo not given) | -9%[1.06 µM] | -4%
CCCCNC(=O)c1ccc2c(c1)N(CC)C(=O)c1ccccc1S2 | 87%[activator] | 1%
O=C(NCCCc1nc2ccccc2n1Cc1ccc(Cl)cc1)C1CCCCC1 | 2% | -13%
Nc1cc(=O)[nH]c(SCc2cccc(Br)c2)n1 | 36%[activator] | 0%
Cc1ccc(C(=O)NCc2sccc2C)cn1 | 16% | 0%
COc1ccccc1NC(=O)c1oc2ccccc2c1NC(=O)c1cccc(OC)c1OC | -5% | 3%
COc1ccc(CCNC(=O)C2CCCN(S(=O)(=O)c3ccc4c(c3)oc(=O)n4C)C2)cc1OC (stereo not given) | -6% | -7%

The closing four records of the section before are carried over, then new ones follow:
SMILES | 2A Renilla | StopGo FLuc
Nc1cc(=O)[nH]c(SCc2cccc(Br)c2)n1 | 36%[activator] | 0%
Cc1ccc(C(=O)NCc2sccc2C)cn1 | 16% | 0%
COc1ccccc1NC(=O)c1oc2ccccc2c1NC(=O)c1cccc(OC)c1OC | -5% | 3%
COc1ccc(CCNC(=O)C2CCCN(S(=O)(=O)c3ccc4c(c3)oc(=O)n4C)C2)cc1OC (stereo not given) | -6% | -7%
O=C(/C=C/c1ccc(-c2cccc(Cl)c2)o1)c1cc(Cl)ccc1Cl | 4% | 21%
Cc1nc(Nc2ncc(C(=O)Nc3c(C)cccc3Cl)s2)cc(N2CCN(CCO)CC2)n1 | ? | ?
CCCCCn1nc(C(=O)N(Cc2ccc(F)cc2)C2CC2)c2ccccc2c1=O | 1% | ?
Cc1[nH]c2ccc(F)cc2c1CC(=O)N1CCN(CC(=O)N2CCCC2)CC1 | -15% | 7%

Single values from the list.
For StopGo FLuc, Cc1ccc(C(=O)NCc2sccc2C)cn1 is entered as 0%
For StopGo FLuc, CCCNC(=O)C1CCC(CNS(=O)(=O)c2ccc3c(c2)CC(C)N3C(C)=O)CC1 (stereo not given) is entered as 16%
For 2A Renilla, CCOC(=O)C(NC(=O)Cc1cc(OC)c(OC)c(OC)c1)C(=O)OCC is entered as 0%
For StopGo FLuc, CCn1c(CCCOc2ccc(Cl)cc2Cl)n[nH]c1=S is entered as 114%[activator]

High-throughput results: PubChem BioAssay, National Center for Advancing Translational Sciences (NCATS)
